# Screens as filed in PubChem BioAssay.
# Myeloid diff 2: compounds promoting myeloid differentiation | ER-HoxA9 myeloid progenitors, lysozyme-GFP differentiation, flow cytometry | calls only at 10 µM | 360,000 tested, 1% active | AID 624256;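 active means normalized GFP-positive differentiation at or above the plate's own cutoff, the solvent-only control mean plus 3 SD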;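 further: cells exposed to compound for four days before flow analysis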
# T cell modulator: T cell immune modulators affecting CD8 T cell-vesicle binding | 2C CD8+ T cell-vesicle binding, flow cytometry; stronger effect = lower value | calls only at 7 µM | 330,000 tested, 0.068% active | AID 2052;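 active means response, share of CD8 T cells binding vesicles, and their 90th percentile fluorescence all below set limits, cut at about 80% in these data, passing the limit was not always enough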
#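 Material: 2C TCR transgenic mouse naive CD8+ T cells, MACS-purified. Also added: QL9-charged Drosophila Ld/ICAM-1/B7-1 vesicles. Timing: binding 1.5 h at 37 °C. Measured by: high-throughput flow cytometry with anti-B7-1 and anti-CD8 staining. Read-out: percent CD8+ FL2 mean versus row control. Controls: Unloaded micro-vesicles (low), QL9 vesicles with 0.7% DMSO (high).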
# MT stabilizer: microtubule stabilizers in HeLa cells. HeLa tubulin immunostaining HCS, 24 h; share of cells brighter than vehicle mean+2SD. % tubulin-high responders, % at 10 µM. 200,000 tested, 0.83% active;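 active means plate Z-score above 3 for both tubulin-high and condensed-nucleus cell shares, with cell loss under 80%, at 10 µM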;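 further: anti alpha tubulin signal scored within the nucleus-defined area of each cell; some results filed as inactive read as strong as hits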
# Autophagy mod: modulators of autophagy. MEF GFP-LC3 puncta imaging; test concentration mostly 10 µM. calls only at 10 µM (by protocol). 190,000 tested, 0.98% active;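 active means percentage of spot-positive cells more than 3 SD above its plate mean, without a fluorescence outlier flag or 80% toxicity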;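 further: spot-positive cell cutoff set from DMSO-treated cells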
# b-catenin transl: modulators of beta-catenin nuclear translocation | HeLa beta-catenin nuclear translocation, immunofluorescence imaging | nuclear translocation activity, % at 5 µM | 190,000 tested, 0.3% active | AID 1665;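 active means nuclear translocation activity above 50% at 5 µM, with a well cell count of 50 or more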;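 further: per-cell ratio of nuclear to cytoplasmic median beta-catenin stain intensity; plate controls were DMSO negative control for no effect and GSK-3 inhibitor IX positive control for full effect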
#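 System: Human HeLa cells, endogenous beta-catenin | Compound dosing: 5 µM primary, 0.02–20 µM confirmation | Timing: 24 h compound exposure at 37°C, 5% CO2 | Measured by: Fluorescence imaging of beta-catenin antibody stain plus DAPI | Read-out basis: % activation of per-cell nuclear versus cytoplasmic median beta-catenin signal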
# b-catenin transl cell count 5 µM: recorded beside b-catenin transl, whose call it bears; cell count; measured here: cell count, cytotoxicity flag
# T cell modulator vesicle-bound %: further read-out of T cell modulator, marked with its call; double positive events, %; measured here: CD8+ vesicle-bound cell fraction;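 binding gate set so that unloaded-vesicle control wells show 10% double positive cells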
# MT stabilizer Hoechst-high %: further read-out of MT stabilizer, marked with its call; % Hoechst-high responders; measured here: nuclear condensation Hoechst responders;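 share of cells brighter than vehicle mean plus two SD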
# MT stabilizer cytotoxicity %: second read-out of MT stabilizer, no call of its own (marks repeat the call); toxicity, %; measured here: cytotoxicity by cell density;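 0% = mean cell density of plate MIN control wells and 100% = no cells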
# Autophagy mod cell loss 18 h: also measured in Autophagy mod; calls as there; toxicity, %; measured here: cell loss, nuclei count;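 cell loss after 18 h compound exposure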
# Myeloid diff 2 GFP+ MAC1+ %: recorded beside Myeloid diff 2, whose call it bears; GFP+ MAC1+ double positive, %; measured here: differentiation confirmed by MAC1 staining
# Starred values were filed as active, the others as inactive; i = inactive; nt = not tested or not shown.
# Keys – A = Myeloid diff 2; B = Myeloid diff 2 GFP+ MAC1+ %; C = T cell modulator; D = T cell modulator vesicle-bound %; E = MT stabilizer; F = MT stabilizer Hoechst-high %; G = MT stabilizer cytotoxicity %; H = Autophagy mod; I = Autophagy mod cell loss 18 h; J = b-catenin transl; K = b-catenin transl cell count 5 µM
smiles: C=C1/C(=C\C=C2/CCC[C@]3(C)[C@@H]([C@H](C)CCCC(C)(C)O)CC[C@@H]23)C[C@@H](O)C[C@@H]1O
  A: nt | B: nt | C: i | D: 18.8 | E: nt | F: nt | G: nt | H: nt | I: nt | J: -1.8 | K: 1065

smiles: C[C@@H]1O[C@@H]1P(=O)(O)O
  A: i | B: 1.3 | C: i | D: 49.2 | E: nt | F: nt | G: nt | H: nt | I: nt | J: nt | K: nt

smiles: NS(=O)(=O)c1ccc(NC(=O)Nc2ccc(Cl)cc2)cc1
  A: i | B: 0.4 | C: i | D: 64.1 | E: 1.8 | F: 0.8 | G: 1.6 | H: i | I: 1.5 | J: -1.4 | K: 1602

smiles: COc1cccc(C(=O)Nc2cc3c(cc2N2CCOCC2)n(C)c(=O)n3C)c1
  A: i | B: 3.1 | C: i | D: 18.6 | E: nt | F: nt | G: nt | H: nt | I: nt | J: nt | K: nt

smiles: O=C(N/N=C/c1ccc(Sc2ccccn2)o1)c1cccc([N+](=O)[O-])c1
  A: i | B: 0.4 | C: i | D: 28.8 | E: 1.2 | F: 3.3 | G: 10.5 | H: i | I: -1.9 | J: 1.7 | K: 528

smiles: CC(C)NC[C@H](O)COc1cccc2ccccc12
  A: i | B: 6.7 | C: i | D: 31.3 | E: nt | F: nt | G: nt | H: nt | I: nt | J: nt | K: nt

smiles: Cc1cc(C)c(/C=C2\C(=O)Nc3ccccc32)[nH]1
  A: i | B: 1.3 | C: i | D: 34.0 | E: nt | F: nt | G: nt | H: nt | I: nt | J: nt | K: nt

smiles: Cc1ccc(S(=O)(=O)n2c(C)nc3ccccc32)cc1
  A: i | B: 0.5 | C: i | D: 23.7 | E: nt | F: nt | G: nt | H: nt | I: nt | J: nt | K: nt

# Nothing new here: 6 of the compounds above.
# Keys – A = Myeloid diff 2; B = Myeloid diff 2 GFP+ MAC1+ %; C = T cell modulator; D = T cell modulator vesicle-bound %; E = MT stabilizer; F = MT stabilizer Hoechst-high %; G = MT stabilizer cytotoxicity %; H = Autophagy mod; I = Autophagy mod cell loss 18 h; J = b-catenin transl; K = b-catenin transl cell count 5 µM
smiles: C=C1/C(=C\C=C2/CCC[C@]3(C)[C@@H]([C@H](C)CCCC(C)(C)O)CC[C@@H]23)C[C@@H](O)C[C@@H]1O
  A: nt | B: nt | C: i | D: 18.8 | E: nt | F: nt | G: nt | H: nt | I: nt | J: -1.8 | K: 1065

smiles: C[C@@H]1O[C@@H]1P(=O)(O)O
  A: i | B: 1.3 | C: i | D: 49.2 | E: nt | F: nt | G: nt | H: nt | I: nt | J: nt | K: nt

smiles: NS(=O)(=O)c1ccc(NC(=O)Nc2ccc(Cl)cc2)cc1
  A: i | B: 0.4 | C: i | D: 64.1 | E: 1.8 | F: 0.8 | G: 1.6 | H: i | I: 1.5 | J: -1.4 | K: 1602

smiles: COc1cccc(C(=O)Nc2cc3c(cc2N2CCOCC2)n(C)c(=O)n3C)c1
  A: i | B: 3.1 | C: i | D: 18.6 | E: nt | F: nt | G: nt | H: nt | I: nt | J: nt | K: nt

smiles: O=C(N/N=C/c1ccc(Sc2ccccn2)o1)c1cccc([N+](=O)[O-])c1
  A: i | B: 0.4 | C: i | D: 28.8 | E: 1.2 | F: 3.3 | G: 10.5 | H: i | I: -1.9 | J: 1.7 | K: 528

smiles: CC(C)NC[C@H](O)COc1cccc2ccccc12
  A: i | B: 6.7 | C: i | D: 31.3 | E: nt | F: nt | G: nt | H: nt | I: nt | J: nt | K: nt

# These rows are one share of the data. The share of hits here may be higher or lower than overall.
